AF4-AF9 inh: inhibitors of AF4 peptide binding to AF9, primary screen, biochemical, AlphaScreen, biotin-AF4 peptide, FLAG-AF9, single point | Protein AF-9 (Homo sapiens), P42568 | inhibition, % at 10 µM | 350,000 tested, 0.47% active | AID 651704, 2012;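 active = every replicate reaching a set inhibition limit, whatever the replicate mean, cut at about 25% in these data; inconclusive = mean inhibition reaches that limit but some replicates miss it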;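 note: 0% = plate neutral control median and 100% = total signal loss; the record names both 10 and 1 µM as test concentration; the first replicate is given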
ALR H2O2 inh: inhibitors of human ALR sulfhydryl oxidase, primary screen, biochemical, H2O2 detection, HRP-luminol luminescence, single point; FAD-linked sulfhydryl oxidase ALR (Homo sapiens), P55789; purified ALR, DTT oxidation; inhibition, % (concentration not given with the values); 290,000 tested, 3.8% active; AID 485317, 2010;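 active = mean and each replicate at 75% or more; inconclusive = only one of the two met; inactive = neither met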;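 note: stock transfer was 7.5 nL into about 7.5 µL; 0% = neutral wells and 100% = wells with inactivated enzyme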
Target sequence (P55789 whole entry, looked up): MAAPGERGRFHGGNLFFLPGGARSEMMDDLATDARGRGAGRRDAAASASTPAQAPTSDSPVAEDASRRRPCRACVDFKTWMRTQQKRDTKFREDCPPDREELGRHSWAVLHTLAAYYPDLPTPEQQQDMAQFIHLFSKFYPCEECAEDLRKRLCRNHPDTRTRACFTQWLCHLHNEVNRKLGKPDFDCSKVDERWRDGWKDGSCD
FGF22 binding: binders of human FGF22 protein, primary screen, FGF22 synaptogenesis inhibitor project, biophysical, thermal shift, single point. Fibroblast growth factor 22 (Homo sapiens), Q9HCT0. calls only at 9.99 µM. 340,000 tested, 1.5% active. recombinant FGF22 thermal shift, SYPRO orange fluorescence; percent of sucrose octasulfate shift, DMSO zero. AID 651658, 2012;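 active = melting point raised past a set limit in the mean and every replicate; inconclusive = no clear call; three in four hits are not shown here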
Target sequence (Q9HCT0 whole entry, looked up): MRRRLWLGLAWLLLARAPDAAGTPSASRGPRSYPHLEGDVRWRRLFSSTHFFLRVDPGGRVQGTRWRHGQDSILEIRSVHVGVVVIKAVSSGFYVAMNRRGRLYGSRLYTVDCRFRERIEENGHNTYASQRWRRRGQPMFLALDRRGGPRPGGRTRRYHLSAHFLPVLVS
Ecoli rRNA inh: reduced GFP signal of wild-type E. coli, primary screen, bacterial rRNA inhibitor project, GFP/RFP fluorescence, OD600, single point. E. coli WT GFP vs humanized-ribosome RFP mutants, 24 h; active compounds read low; DMSO median 0, no signal -100. AID 720706, 2013. GFP signal change (wild-type ribosome), % (no concentration beside the values). 350,000 tested, 1.6% active;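 active = significant combined selectivity score with lowered wild-type GFP, culture density cut under 30%, mutant RFP and density less affected; inactive = any of these conditions unmet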; note: one replicate is shown; some compounds called inactive have numbers as strong as hits
HNF4A DNA FP: change in binding of human HNF4A to DNA, primary screen, biochemical, fluorescence polarization, FITC-DNA | Hepatocyte nuclear factor 4-alpha (Homo sapiens), P41235 | 1 h | activity change, % at 10 µM | 360,000 tested, 0.3% active; in the data active = activity change above about 30%, passing the limit was not always enough;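 note: controls were the assay level and a saturating level of protein; the project sought stronger binding though the title names inhibitors; some compounds called inactive have numbers as strong as hits; positive values seem to mean higher polarization but the record does not say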
Target sequence (P41235 whole entry, looked up): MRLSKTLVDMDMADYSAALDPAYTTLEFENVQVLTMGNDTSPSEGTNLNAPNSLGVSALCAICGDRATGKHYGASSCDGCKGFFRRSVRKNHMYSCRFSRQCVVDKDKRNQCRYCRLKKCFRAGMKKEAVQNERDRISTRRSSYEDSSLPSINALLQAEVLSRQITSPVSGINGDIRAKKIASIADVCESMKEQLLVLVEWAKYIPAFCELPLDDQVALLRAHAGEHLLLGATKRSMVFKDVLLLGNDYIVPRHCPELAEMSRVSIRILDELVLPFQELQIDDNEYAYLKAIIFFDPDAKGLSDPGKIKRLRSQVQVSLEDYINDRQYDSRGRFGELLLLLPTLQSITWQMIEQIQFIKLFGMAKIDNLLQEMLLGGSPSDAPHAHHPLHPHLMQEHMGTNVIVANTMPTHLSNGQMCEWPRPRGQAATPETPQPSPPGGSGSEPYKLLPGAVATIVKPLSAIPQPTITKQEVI
Vif A3G: inhibitors of Vif binding to APOBEC3G peptide, primary screen, biochemical, TR-FRET, GST-Vif 1-94, biotin-A3G peptide, dose response retest (AID 1117319); 260,000 tested, 0.57% active; TR-FRET GST-Vif / biotin-A3G peptide binding; higher % means a stronger effect; test concentration not given here; strong numbers were not always called active; one-dose inhibition, %; IC50 in µM for titrated hits; Virion infectivity factor (Human immunodeficiency virus type 1 group M subtype B (isolate …;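 active = above the screen mean plus three standard deviations and confirmed in dose response; inconclusive = results disagree or hit not tested in dose response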;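 note: Vif residues 1-94 fused to GST binding biotinylated APOBEC3G peptide 110-148; 0% = full assay without inhibitor and 100% = GST in place of GST-Vif; retest series ran down from 100 µM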
E coli growth: E. coli growth inhibition, primary screen, OD600 | Escherichia coli growth, 23 h; active compounds read low | OD600 absorbance (concentration not given with the values) | 330,000 tested, 0.21% active | AID 1053175, 2014;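 active = OD600 absorbance below the run mean of sample wells minus 3.6 SD, in any replicate, cut at about 0.56 in these data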;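 note: stock transfer was 300 nL into about 60 µL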
Ecoli rRNA inh OD600: also measured in Ecoli rRNA inh; calls as there; OD600 change, %; measured here: OD600 growth;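 optical density of the mix in the first replicate; 0 = DMSO median and -100 = no signal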
Ecoli rRNA inh RFP: further read-out of Ecoli rRNA inh, marked with its call; RFP signal change, %; measured here: RFP humanized mutant strains;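 first replicate; 0 = DMSO median and -100 = no signal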
* marks the source's active call; other numbers are inactive results; i = inactive; ? = inconclusive; . = not tested or not shown. An excerpt, so the mix of outcomes need not match the whole.

SMILES	AF4-AF9 inh	ALR H2O2 inh	FGF22 binding	Ecoli rRNA inh	Ecoli rRNA inh OD600	Ecoli rRNA inh RFP	HNF4A DNA FP	Vif A3G	E coli growth
Cc1ccccc1Nc1scc(-c2ccc(Cl)cc2)[n+]1-c1ccccc1C	13.6	.	i	7.0	4.5	-0.2	2.6	?	0.737
NNC(=O)Cn1c(-c2ccccc2)cc2ccccc21	-0.4	2.2	i	9.2	12.4	0.9	-0.1	.	0.637
C[C@@H]1CN([C@H](C)CO)C(=O)c2cccc(NC(=O)CCCCCC(=O)Nc3ccccc3N)c2O[C@H]1CN(C)C(=O)Nc1ccccc1	3.9	.	i	3.4	6.3	-1.3	.	.	.
Cc1ccc(OCC(=O)NNC(=O)CSc2nnc(-c3ccc(C)cc3)n2C)cc1	.	1.3	.	.	.	.	4.8	-3.2%	0.664
CCC(C)(C)NC(=O)CN(C(=O)CNS(=O)(=O)c1ccccc1)c1ccc2c(c1)OCCO2	0.9	1.1	i	6.4	2.1	-1.1	0.6	.	0.702
Nc1c(C=C2C=CC(=O)C=C2)c(=O)nc2sc(CC(=O)N3CCOCC3)nn12	-1.3	98.0*	i	5.6	8.9	2.0	-3.8	1.7%	0.652
c1ccc(CNc2ncnc3sc4c(c23)CCC4)nc1	.	2.3	.	.	.	.	-1.4	4.1%	0.723
O=C(NC(=S)N1CCN(Cc2ccc3c(c2)OCO3)CC1)c1ccc(Cl)cc1	.	2.9	.	.	.	.	5.7	17.5%	0.644
CCOc1nc(-c2ccccc2)ccc1-c1noc(-c2ccc(OC)c(OC)c2)n1	-2.2	.	i	2.4	10.8	1.3	1.9	.	0.731
C[C@@H]1CCCCO[C@H](CN(C)S(=O)(=O)c2cn(C)cn2)[C@@H](C)CN([C@@H](C)CO)C(=O)c2cc(N(C)C)ccc2O1	-1.8	.	i	1.2	13.0	0.4	.	.	.
COc1ccc(C(=O)Nc2ccccc2NC(=O)c2ccco2)c(OC)c1	0.4	-5.7	i	-10.5	-6.8	-1.5	-5.6	.	0.665
COc1ccc(S(=O)(=O)N(C)C[C@@H]2Oc3c(NC(=O)C4CCOCC4)cccc3C(=O)N([C@@H](C)CO)C[C@H]2C)cc1	-3.2	.	i	3.8	3.6	-2.5	.	.	.
CN(C)C(=O)Cn1c(SCC(=O)NC2CCCCC2)nc2ccccc21	.	4.5	.	6.3	14.2	-1.2	-2.8	20.8%	0.694
COC(=O)C1=C[C@@H](C(=O)OC)[C@@H]2C3=C(C(=O)[C@]2(CC(C)C)NC(=O)c2ccccc2)[C@H](C)n2c(=O)n(-c4ccccc4)c(=O)n2[C@@H]3C1	3.1	-13.1	i	4.7	6.2	2.4	-4.7	.	.
OC(c1ccc(-c2ccccc2)cc1)c1ncc(-c2ccc(C(F)(F)F)cc2)[nH]1 (centres undefined)	-2.2	.	i	9.2	-4.6	12.5	-2.9	.	.
Cc1cc(NC(=O)c2cn(C3CCCCC3)c(=O)c3c2c2ccccc2n3C)no1	11.8	6.3	i	-4.4	-4.4	10.7	1.3	?	0.749
COc1cccc(NC(=S)N2CCC(NC(=O)c3ccco3)CC2)c1	-5.2	-1.0	i	-0.7	3.6	-0.1	-0.2	-3.1%	0.66
O=C1N(CCCl)c2ccc(Br)cc2C12OCCO2	-0.7	-5.1	i	-9.8	-5.7	-5.3	0.5	.	0.664
c1ccc2c(SCc3cn4cccnc4n3)ncnc2c1	.	-6.2	.	.	.	.	-2.2	0.5%	0.75
Nc1nc2ccccc2n1CCOc1ccc(Br)cc1	5.9	-24.0	i	-57.8	-78.8	-19.8	2.2	-6.8%	0.578
Cc1cc(S(=O)(=O)N2CCOCC2)ccc1OCC(=O)N1CCOCC1	-2.7	3.8	i	5.9	13.3	-2.4	0.0	-2.3%	0.682
Cc1ccc(S(=O)(=O)N(C)C[C@@H]2Oc3ccc(NC(=O)CCN4CCOCC4)cc3CC(=O)N([C@@H](C)CO)C[C@H]2C)cc1	-1.9	.	i	0.6	0.4	-0.6	.	.	.
Cc1ccc(S(=O)(=O)N(C)C[C@H]2Oc3ccc(NC(=O)CCC(F)(F)F)cc3CC(=O)N([C@@H](C)CO)C[C@@H]2C)cc1	-0.4	.	i	-0.6	-3.1	1.8	.	.	.
Cc1cccc(-n2c(SCC(=O)O)nc3sc4c(c3c2=O)CCCC4)c1	-2.2	.	i	5.1	14.0	1.0	-5.2	?	0.721
Cn1c(=NC(=O)CS(=O)(=O)c2ccccc2)sc2cc(F)ccc21	-2.0	.	i	-1.9	-6.2	0.1	-2.0	.	.

Single entries from above:
In E coli growth, `COc1ccc(C(=O)Nc2ccccc2NC(=O)c2ccco2)c(OC)c1` reads 0.665
In Ecoli rRNA inh RFP, `Cc1ccc(S(=O)(=O)N(C)C[C@H]2Oc3ccc(NC(=O)CCC(F)(F)F)cc3CC(=O)N([C@@H](C)CO)C[C@@H]2C)cc1` reads 1.8
In Ecoli rRNA inh RFP, `OC(c1ccc(-c2ccccc2)cc1)c1ncc(-c2ccc(C(F)(F)F)cc2)[nH]1` (centres undefined) reads 12.5
In AF4-AF9 inh, `COc1ccc(S(=O)(=O)N(C)C[C@@H]2Oc3c(NC(=O)C4CCOCC4)cccc3C(=O)N([C@@H](C)CO)C[C@H]2C)cc1` reads -3.2
In AF4-AF9 inh, `C[C@@H]1CN([C@H](C)CO)C(=O)c2cccc(NC(=O)CCCCCC(=O)Nc3ccccc3N)c2O[C@H]1CN(C)C(=O)Nc1ccccc1` reads 3.9
In AF4-AF9 inh, `Cc1ccc(S(=O)(=O)N(C)C[C@@H]2Oc3ccc(NC(=O)CCN4CCOCC4)cc3CC(=O)N([C@@H](C)CO)C[C@H]2C)cc1` reads -1.9

Returning to the listing with the 2 entries that preceded the break.
SMILES	AF4-AF9 inh	ALR H2O2 inh	FGF22 binding	Ecoli rRNA inh	Ecoli rRNA inh OD600	Ecoli rRNA inh RFP	HNF4A DNA FP	Vif A3G	E coli growth
Cc1cccc(-n2c(SCC(=O)O)nc3sc4c(c3c2=O)CCCC4)c1	-2.2	.	i	5.1	14.0	1.0	-5.2	?	0.721
Cn1c(=NC(=O)CS(=O)(=O)c2ccccc2)sc2cc(F)ccc21	-2.0	.	i	-1.9	-6.2	0.1	-2.0	.	.
Cc1ccnc(NS(=O)(=O)c2ccc(NC(=O)C34CC5CC(CC(C5)C3)C4)cc2)n1	.	-14.5	.	.	.	.	-3.4	8.5%	0.73
Cc1ccc(C)c(NC(=S)N/N=C2\CCc3ccccc32)c1	7.4	.	i	-23.8*	-4.2*	1.5*	3.6	?	.
CCOC(=O)C(NC(=O)N1CCCCC1)(c1ccccc1)C(F)(F)F (centres undefined)	.	-16.4	.	.	.	.	0.0	17.1%	0.683
COC(=O)[C@H](CCSC)NC(=O)NCc1ccccc1F	.	-3.6	.	.	.	.	1.2	-5.6%	0.719
CCOC(=O)C1=C(COC(=O)Cc2ccc(Cl)cc2)NC(=O)NC1C (centres undefined)	-4.3	-8.7	i	3.4	2.2	-0.4	-4.8	-7.9%	0.701
CC(=O)N1c2c(cc(Br)cc2S(=O)(=O)NCC2COc3ccccc3O2)CC1C (centres undefined)	.	-14.2	.	.	.	.	0.0	?	0.733
COc1ccccc1NC(=O)Nc1ccc2c(c1)OC[C@@H](C)N(Cc1ccccc1Cl)C[C@@H](C)[C@H](OC)CN(C)C2=O	-6.8	.	i	3.8	2.8	1.4	.	.	.
Cc1cc(-c2cccs2)n[nH]1	.	10.1	.	.	.	.	-5.4	-4.4%	0.724
CCN1[C@@H]2c3ccc(-c4ccccc4)c(=O)n3C[C@H]1[C@H](CO)[C@H]2C(=O)NCc1ccccc1	-0.4	.	i	-1.5	-0.8	-2.0	.	.	.
Cn1c(NC(=O)c2ccc(S(=O)(=O)N3CCCCC3)cc2)cc(=O)n(C)c1=O	.	-0.2	.	.	.	.	1.7	7.3%	0.693
O=C1CCC(/C=C/c2ccccc2)=NN1Cc1ccc(F)cc1	1.3	-9.5	i	-32.5	-52.7	-8.4	3.1	-0.1%	0.657
O=C(O)c1ccccc1-c1ccccc1C(=O)Nc1cccc(O)c1	0.2	13.5	i	20.4	11.2	0.3	-2.1	7.6%	0.688
CC(C)SCCCOc1ccc(C(C)(C)C)cc1	.	-4.2	.	.	.	.	0.3	-6.8%	0.761
Fc1ccc(-c2cnc(-c3cccs3)o2)cc1	.	7.0	.	.	.	.	-2.3	-5.8%	0.698
Cc1cc(Cl)ccc1NC(=O)COC(=O)CCNS(=O)(=O)c1ccccc1	-9.6	-2.8	i	-2.9	-2.7	0.9	3.0	0.9%	0.646
C[C@@H]1CN([C@H](C)CO)C(=O)c2cc(C#Cc3ccc(F)cc3)cnc2O[C@H]1CN(C)S(C)(=O)=O	0.1	.	i	-1.7	1.8	2.6	.	.	.
Cc1nn(CCc2nn[nH]n2)c2nc(-c3ccc(C4CCCCC4)cc3)cc(C(F)(F)F)c12	7.3	7.1	i	13.3	-13.6	-0.3	-37.0	10.9%	0.645
CC1(C)CC2CC(C)(CN2C(=O)COC(=O)c2ccc(O)cc2O)C1 (centres undefined)	0.4	.	i	-18.1	-26.9	-2.8	-4.0	.	0.708
CN(C)c1ccc(P(=O)(Nc2ccccc2)N2CCOCC2)c(NC(=O)c2cccs2)c1 (centres undefined)	.	-8.8	.	.	.	.	0.3	-9.6%	0.7
CCn1cnc2sc(-c3ccccc3)cc2c1=O	.	-7.3	.	.	.	.	-1.0	1.3%	0.674
O=C(COc1ccccc1CNCc1ccccc1)Nc1ccccc1	.	-40.7	.	.	.	.	1.3	2.5%	0.718
COc1ccc(NC(=O)N(C)C[C@H]2Oc3ccc(NS(=O)(=O)c4c(C)noc4C)cc3C(=O)N([C@@H](C)CO)C[C@H]2C)cc1	-0.5	.	i	-5.1	-5.5	0.2	.	.	.
CCN(CC)C(=O)c1csc([C@H]2C[C@H](O)[C@@H](CO)O2)n1	-5.0	.	i	10.8	16.1	0.7	4.4	.	.
COc1ccccc1Cn1c(=S)[nH]c2cc(C(=O)N3CCCC3)ccc2c1=O	-3.2	-0.3	i	-2.9	8.4	1.7	-1.3	.	0.674
C[C@@H]1CN([C@@H](C)CO)S(=O)(=O)c2ccc(-c3cccnc3)cc2O[C@H]1CN(C)C(=O)NC1CCCCC1	0.6	.	i	2.6	-5.8	-0.2	.	.	.
CCn1cc(CN2CCCC(C(=O)Nc3ccc(-c4cscn4)cc3)C2)c(C)n1 (centres undefined)	4.9	-6.1	i	2.8	7.4	-0.5	-1.0	.	0.633
Cc1ccc(C2NC(=O)c3c(sc4c3CCN(C)C4)N2)o1 (centres undefined)	.	-7.2	.	.	.	.	-10.4	14.9%	0.691

Entries listed so far shown as hits in ALR H2O2 inh:
SMILES	AF4-AF9 inh	ALR H2O2 inh	Ecoli rRNA inh	Ecoli rRNA inh OD600	Ecoli rRNA inh RFP	Vif A3G
Nc1c(C=C2C=CC(=O)C=C2)c(=O)nc2sc(CC(=O)N3CCOCC3)nn12	-1.3	98.0*	5.6	8.9	2.0	1.7%
